# Vaccinia Venus: qHTS for Stage-Specific Inhibitors of Vaccinia Orthopoxvirus: Venus Reporter Primary qHTS | Vaccinia virus Venus reporter expression, fluorescence | Potency, µM (titrated, usually from 36.5 µM), for inactives: top-dose activity change, negative = inhibition, usual class: inhibitors | 330,000 compounds, 0.46% hits | AID 720580, 2013; active means well fitted inhibition curve with a large enough effect; inconclusive means small, poorly fitted or top-dose-only effect; inactive means no such curve, though single readings can be large or run the other way; tested in A549 cells; also: nearly all actives have a fitted effect of over 30% in size; inactives centre near -10
# Vaccinia mCherry: qHTS for Stage-Specific Inhibitors of Vaccinia Orthopoxvirus: mCherry Reporter Primary qHTS; 310,000 compounds, 0.63% hits; Potency, µM (series often up to 36.5 µM), inactives show top-dose activity change, negative = inhibition, most hits filed as inhibitors; Vaccinia virus mCherry reporter infection, fluorescence; about a quarter of the inactives have no number; AID 720579, 2013; active = well fitted inhibition curve with a large enough effect; inconclusive = small, poorly fitted or top-dose-only effect; inactive = no such curve, though single readings can be large or run the other way; tested in A549 cells; also: nearly all actives have a fitted effect of over 35% in size; inactives centre near -10
# The depositor's hits bear a star; i = inactive; ? = inconclusive; . = no result given; & = joins results of further samples; [ ] = another dose, or the depositor's remark. % is scaled to controls: 0 for no effect and ±100 for the full control effect; potency is read from the fitted curve at half-maximal effect.
Molecule	Vaccinia Venus	Vaccinia mCherry
Cc1cc(C)n(S(=O)(=O)c2ccc3ccccc3c2)n1	-9%	-8%
CC(NC(=O)c1cc(S(=O)(=O)N2CCOCC2)cn1C)c1ccccc1 (centres undefined)	-1%	-8%
CC(=O)Oc1c2c(c(CC=C(C)C)c3c1C(=O)C1=CC4CC5C(C)(C)OC(C/C=C(\C)C(=O)O)(C4=O)[C@]15O3)OC(C)(CCC=C(C)C)C=C2 (some centres undefined)	?	11µM*
Cc1[nH][nH]c(=O)c1C(c1ccc(-c2cccc(C(=O)O)c2)o1)c1c(C)[nH][nH]c1=O	-8%	-1%
[O-]c1n[n+](-c2ccc(Cl)cc2)cc2ccccc12	-5%	4%
CCOc1ccc(N(CC(=O)Nc2cccc(C)c2)S(C)(=O)=O)cc1	-6%	-13%
O=C(Cc1nc2ccccc2[nH]1)c1ccc([N+](=O)[O-])cc1	-12%	?
CCc1cccc(NC(=O)CSc2n[nH]c(-c3ccccc3Cl)n2)c1	-12%	-6%
CCOc1ccc(NC(=O)COc2coc(CN3CCc4ccccc4C3)cc2=O)cc1	-23%	-19%
Cc1ccc(OCC(=O)Oc2ccccc2[N+](=O)[O-])cc1	-3%	-7%

# (list continues)
Molecule	Vaccinia Venus	Vaccinia mCherry
O=C(O)c1cccc(C(=O)O)c1Br	-11%	i
Cc1ccc(CCNC(=O)c2cc3c(=O)oc4ccccc4c3s2)cc1	5%	3%
O=C(C[n+]1cccc(CNC(=O)c2ccc(OC(F)F)cc2)c1)c1ccccc1	-17%	-2%
CN(C)CCN(C(=O)c1ccc(Br)s1)c1nc2cc3c(cc2s1)OCCO3	8%	-20%
Cc1[nH]c2ccc(O)cc2c1CCN	-17%&-8%	-10%
COc1cccc(NC(=O)N(C)C[C@H]2Oc3ncc(Br)cc3C(=O)N([C@H](C)CO)C[C@H]2C)c1	-17%	-19%
Clc1cccc(Cl)c1COn1nnc2ccccc21	-10%	-26%
CCOC(=O)c1cnc2nc(Cc3ccccc3)[nH]n2c1=O	-23%	.
CCn1cc(C(=O)Nc2cccc(Cl)c2)c2cc(OC)c(OC)cc2c1=O	-28%	-23%
CCc1ccc(S(=O)(=O)c2nnn3c2nc(NC(C)C)c2cc(Cl)ccc23)cc1	-12%	i

# Later entries.
Molecule	Vaccinia Venus	Vaccinia mCherry
O=C(Nc1cc(C(F)(F)F)cc(C(F)(F)F)c1)O[C@@H]1c2ccccc2[C@@H]2Cc3csc[n+]3[C@H]12	-10%	-10%
COc1cc([N+](=O)[O-])ccc1NC(=O)COC(=O)CCS(=O)(=O)c1ccc(C)cc1	-16%	i
Cc1cccc(Nc2ccncc2S(=O)(=O)NC(=O)NC(C)C)c1	-1%&-6%	-2%&-5%
Cc1ccccc1NC(=O)Cn1cc(S(=O)(=O)c2ccccc2)c(=O)c2ccccc21	-2%	-6%
COCCn1c(SCC(=O)NC(=O)NCc2ccccc2)nc2ccccc21	-17%	-20%
COC(=O)c1ccc(C2Nc3c(C)cccc3-c3cc(C)nn32)cc1 (centres undefined)	-7%	-19%
CCN(CC)c1nc(SCCOC(=O)Nc2ccccc2)nc(N(CC)CC)n1	-18%	-16%
Cc1ccn2cc(C(=O)Nc3ccccc3N3CCOCC3)nc2c1	-5%	-15%
Nc1nonc1N/N=C/c1c(O)ccc2ccccc12	-25%	-29%
CCc1ccccc1NC(=O)COC(=O)c1cn(CC)c2nc(C)ccc2c1=O	5%	2%

# Remaining list, next part
Molecule	Vaccinia Venus	Vaccinia mCherry
CCN1C(=O)S/C(=C/c2c(OCc3ccc(C(=O)O)cc3)ccc3ccccc23)C1=O	?	i
COc1ccc([N+](=O)[O-])cc1N(CC(=O)N(C)C)S(C)(=O)=O	-3%	6%
CCCCCCN1CCN(C2CN(CCc3ccccc3)S(=O)(=O)C2)CC1 (centres undefined)	-3%	i
CCc1ccc(/C=N/NC(=O)Cc2ccc(OC)c(OC)c2)s1	-12%	-4%
CCSCCC(NC1=CC(=O)CC(C)(C)C1)C(=O)O (centres undefined)	-11%	.
COc1ccc(C(C)=O)cc1CSc1nc2ccccc2c(=O)n1-c1ccccc1	-9%	0%
O=C1CC(CC(=O)N/N=C/c2ccccc2[N+](=O)[O-])=NN1	1%	-12%
Cc1cccc(C)c1N1CCN(c2c(C)cccc2C)CC1	-3%	i
Cn1cc(/C=C(\NC(=O)c2ccccc2Cl)C(=O)NCCCn2ccnc2)c2ccccc21	-17%	-14%
CCCOC(=O)C1[C@H]2C(=O)N(C(C)c3ccc(OC)cc3)C[C@]23C=C[C@H]1O3 (some centres undefined)	-4%	.

# Next part
Molecule	Vaccinia Venus	Vaccinia mCherry
COc1ccc(CNC(=O)COC(=O)CCn2c(C)csc2=O)cc1OC	-4%	i
O=S1(=O)N[C@H](Cc2ccccc2)COc2cccc(N3CCC[C@H]3CO)c21	3%	i
NS(=O)(=O)c1ccc(Nc2nc(-c3ccc(F)cc3)cs2)cc1	-17%	?
C/C(CC(=O)Nc1ccccc1C(F)(F)F)=N\NC(=O)c1cnccn1	-1%	9%
O=C(COC(=O)c1cnc(Cl)c(Cl)c1)NCCC1=CCCCC1	-4%	i
CCOC(=O)c1cnc(N2CCN(c3ccc(C)cc3C)CC2)c2ccccc12	-5%[7.34 µM]	-6%[7.34 µM]
C=CCN1C(=O)c2ccc(C(=O)OCC(=O)N(C)C3CCCCC3)cc2C1=O	-22%	i
COCCN(C(=S)Nc1ccc(Cl)cc1OC)C1CCN(C(C)=O)CC1	-18%	-5%
NC(=O)CC(NC(=O)Cc1ccc(Br)cc1)c1ccc(N2CCc3ccccc3C2)c([N+](=O)[O-])c1 (centres undefined)	?	-25%
Cc1cc2nc(SCC(=O)O)nc(C)c2cc1C	-9%	i

# Next results
Molecule	Vaccinia Venus	Vaccinia mCherry
Cc1ccccc1C(N)=O	-1%	-11%
Cc1cc(Cl)ccc1OCC(=O)NNC(=O)c1cnccn1	-19%	-27%
CCOc1ccc(-c2cn3c(n2)sc2cc(C(=O)NCCCc4ccccc4)ccc23)cc1	-17%	-19%
COC(C[C@H]1O[C@H]1[C@@H](O)COCc1ccccc1)OC	-13%	i
Cc1ccc(CN2CCNC(=O)C2CC(=O)NCc2csc(C(C)C)n2)cc1 (centres undefined)	-16%	-23%
CC(=O)Nc1cccc(NC(=O)c2ccc(Br)cc2)c1	-11%	-11%
CS(=O)(=O)N(Cc1ccccc1)c1ccc(C(=O)Nc2cccnc2)cc1	2%	i
c1cnc2nc3c4ccccc4c4ccccc4c3nc2c1	-10%	-15%
CNCCc1c[nH]c2ccc(O)cc12	-7%	i
Cc1nn(C)cc1[C@@H]1C[C@H]2CN(Cc3cccc(Cl)c3)C(=O)[C@]23CCCN13	-26%	?

# (continued)
Molecule	Vaccinia Venus	Vaccinia mCherry
CCCCNC(=S)N(Cc1ccco1)Cc1cc2cc3c(cc2[nH]c1=O)OCCO3	-2%	-7%
COc1ccc(Cl)c2sc(NC(=O)C3=COCCO3)nc12	-1%	-4%
O=C(NCCNc1ccc([N+](=O)[O-])cc1C(F)(F)F)c1ccccc1	-16%	-17%
Cn1c(=O)[nH]c(=O)c2c1nc(CN1CCN(Cc3ccccc3)CC1)n2CC(N)=O	-2%	i
Cc1ccc(N2C(=O)N3[C@H](c4ccc(F)cc4)[C@@H]4C(=O)N(C5CCCCC5)C(=O)[C@@H]4[C@]3(C)C2=O)cc1	-21%	-8%
Cc1cccc(Cn2c(NCCO)nc3c2c(=O)n(C)c(=O)n3C)c1	?	?
O=C(CSC1=Nc2ccccc2N=C(c2ccc(F)cc2)C1)NCc1ccc(F)cc1	-23%	-26%
Cc1ccc(C(=O)COC(=O)Cc2ccccc2)cc1	-9%	-17%
CC(=O)c1cc2cccc(OC3(C)CCN(Cc4ccc5ccccc5c4)C3)c2o1 (centres undefined)	7%	-6%
CCCCCCOC1(c2ccccc2)OC(=O)c2ccccc21 (centres undefined)	-4%	-8%

# Additional results follow:
Molecule	Vaccinia Venus	Vaccinia mCherry
COC(=O)c1cc2occc2n1Cc1nc(-c2ccc(C)cc2)oc1C	7%	2%
COc1ccc(CNC(=O)c2cc(-c3ccc(OC)cc3)on2)cc1	-5%	-9%
CC(=O)OCC(=O)C1CCC2C3CC=C4CC(O)CCC4(C)C3CCC12C (centres undefined)	-9%	i
CCOc1ccc(OC(=O)c2cccc(S(=O)(=O)N3CCN(C)CC3)c2)cc1	4%	-5%
CCCc1nc2ccccc2c(=O)n1-c1cccc(OC)c1	-1%	-16%
Fc1ccccc1CSc1nnc(Cn2cnc3ccccc32)n1-c1ccccc1	-14%	-8%
CCCCCCCCCCCCC/C=C/[C@@H](O)[C@@H](N)CO	-9%	-15%[3.33 µM]
COc1ccc2[nH]c(C(=O)Nc3ccc(C)c(F)c3)cc2c1	-9%	i
CCOCCCN(C(=O)c1snc(C(N)=O)c1N)C(C(=O)NC(C)(C)C)c1ccc(Cl)cc1 (centres undefined)	-10%	?
CCN(C(=O)c1ccc(NC(C)=O)cc1)c1ccccc1C	-5%	.

# Additional compounds:
Molecule	Vaccinia Venus	Vaccinia mCherry
CCN(CC)S(=O)(=O)c1ccc2oc(Nc3ccc4c(c3)OCCO4)nc2c1	-24%	-13%
CCn1ccnc1CN(C)C(=O)CCc1nnc(CCC2CCCCC2)o1	0%	-7%
Cc1ccc(OCCNC(=O)CNC(=O)c2ccc(C)cc2)cc1	-14%	i
CCOc1ccccc1C1N=C(N)Nc2nc3ccccc3n21 (centres undefined)	-2%	6%
Cc1nnc(SCc2ccc(Cl)cc2)c2cc3occc3n12	-13%	-12%
Cc1cc2ncn(CCCCOc3ccccc3)c2cc1C	-10%	-6%
CCCN(C)C1CN(Cc2cn(Cc3cccc(C(F)(F)F)c3)nn2)S(=O)(=O)C1 (centres undefined)	-10%	-5%
CN(C)S(=O)(=O)c1cccc(NC(=O)c2ccccc2OCc2ccc(F)cc2)c1	-14%	-11%
CSc1nc2nccc(-c3ccc(-c4ccccc4)cc3)n2n1	-18%	.
CC(=O)Nc1ccc(-c2ccnc3c2CC(C(=O)Nc2ccccc2)O3)cc1 (centres undefined)	?	-1%

# Continued; the last five above are carried over.
Molecule	Vaccinia Venus	Vaccinia mCherry
Cc1cc2ncn(CCCCOc3ccccc3)c2cc1C	-10%	-6%
CCCN(C)C1CN(Cc2cn(Cc3cccc(C(F)(F)F)c3)nn2)S(=O)(=O)C1 (centres undefined)	-10%	-5%
CN(C)S(=O)(=O)c1cccc(NC(=O)c2ccccc2OCc2ccc(F)cc2)c1	-14%	-11%
CSc1nc2nccc(-c3ccc(-c4ccccc4)cc3)n2n1	-18%	.
CC(=O)Nc1ccc(-c2ccnc3c2CC(C(=O)Nc2ccccc2)O3)cc1 (centres undefined)	?	-1%
Nc1nn(-c2ccccc2)c2ccc([N+](=O)[O-])cc12	-25%	?
COc1ccc(OCCOc2ccc(S(=O)(=O)N3CCCC3)cc2[N+](=O)[O-])cc1	-12%	-25%
COc1cccc(C(=O)Nc2c3c(nn2-c2cccc(C)c2C)CS(=O)C3)c1OC (centres undefined)	-7%	-14%
COc1ccc(/C=C2\SC(=S)N(CCC(=O)NCCCN3CCOCC3)C2=O)cc1	?	?
COc1ccc(-c2nnc3n2-c2ccccc2SC3)cc1OC	-13%	.
CC1CCN(c2oc(-c3ccc(COc4ccccc4)o3)nc2C#N)CC1	-3%	-5%
COc1ccc(C(=O)N2CC3(CC(c4ccc(Cl)cc4)=NO3)C[C@H]2C(=O)NCC(N)=O)cc1 (some centres undefined)	-10%	0%
CCOc1ccc2c(c1)C(=NNC(=O)c1ccncc1)c1cc(OCC)ccc1-2	6%	i
O=C(CCc1n[nH]c(=O)[nH]c1=O)N1CCOCC1	-13%	i
CC1=C(C(=O)Nc2ccccc2C(=O)NCCCN2CCN(C)CC2)SCCO1	-15%	-12%

# (cont.)
Molecule	Vaccinia Venus	Vaccinia mCherry
CC(Oc1ccc(F)cc1)C(=O)Nc1cc(C(F)(F)F)ccc1-n1cncn1 (centres undefined)	-13%	i
COc1cc(Nc2ncc3c(n2)CCN(Cc2cccc(C)c2)C3)cc(OC)c1	-7%	-1%
CCCCC(=O)N1CCN(c2nc3c(C)c(C)ccc3s2)CC1	5%	-6%
COc1cccc(C2(C)NC(=O)N(CC(=O)Nc3ccc(N4CCOCC4)cc3)C2=O)c1 (centres undefined)	6%	i
O=c1c2ccccc2nc(COc2ccccc2)n1/N=C/c1cn[nH]c1-c1ccccc1	?	?
CCc1ccc(CNC(=O)CCCN2C(=O)c3cccnc3Oc3ccc(Cl)cc32)cc1	-3%	-10%
COc1ccc(NC(=O)c2ccccc2-c2ccccc2)cc1	-7%	-15%
Cc1cccc(NC(=O)c2ccc(C(=O)c3ccccc3)cc2)n1	-18%	-26%
CC(C)c1ccc(-c2nc(N3CCCC3)nc3n[nH]c(N)c23)cc1	-18%	-28%
O=C(CSCC(=O)N1CCCCC1)Nc1nc(-c2cccs2)cs1	-18%	-3%

# Further results follow:
Molecule	Vaccinia Venus	Vaccinia mCherry
CC(C)c1ccc(NC(=S)N2CCCC(c3ccc(F)cc3)=N2)cc1	0%	-8%
COC(=O)/C=C1\OC(C2CC2)c2ccccc21 (centres undefined)	-18%	-14%
CN=C(Nc1cccnc1)c1ccccc1	-18%	-13%
CCCS(=O)(=O)NC(=O)C1(C)CCN(C(=O)C2(c3ccc(Cl)cc3)CCCC2)C1 (centres undefined)	6%	0%
CCN(c1ccccc1)S(=O)(=O)c1ccc(C(=O)NCCc2ccc(S(N)(=O)=O)cc2)cc1	-19%	-25%

# Screening data: PubChem, National Center for Advancing Translational Sciences (NCATS)
